Bioassay records: PubChem, Broad Institute
BJeLR viability: BJeLR cell viability reduction; AID 2275; viability loss activity score, % (no concentration beside the values); BJeLR fibroblasts viability, CellTiterGlo ATP luminescence, 48 h; HRASV12, hTERT and SV40 LT/ST transformed; 0.64% of 30,000 active; in the data active = viability loss activity score above about 50%; about a fifth of its hits are not listed in these tables;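 also: higher score means fewer live cells and less ATP luminescence; stock transfer was 50 or 100 nL into about 30 µL; 0% = vehicle wells and 100% = a reference killing control; one replicate is shown; the record names a cut of 85%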
A1 inhib: blocks A1 activity | MEF A1-2A-BIM cells, caspase-Glo luminescence, 3 h; percent of clofoctol signal, DMSO as zero | caspase activation, % (no concentration beside the values) | 0.51% of 21,000 active;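 active = most replicate scores above 10, or exactly half above 10 with mean activity above 10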;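 also: effector caspase 3 and 7 activity cleaving a DEVD luciferin substrate; 50 nL library stock added to about 30 µL; numbers are from one replicate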
An asterisk follows results filed as active; . = not tested or not shown. Some of the compounds tested. The share of hits here may be higher or lower than overall.

Screens in order – BJeLR viability	A1 inhib
CN(C)c1ccc(C(c2nnnn2CCOC(=O)Nc2ccc(Cl)cc2)N2CCOCC2)cc1 (stereo not given)
 : -6.6	.
Cc1noc(C)c1NC(=O)Nc1ccc2c(c1)C(=O)N([C@H](C)CO)C[C@H](C)[C@H](CN(C)S(=O)(=O)c1cn(C)cn1)O2
 : 1.5	0.4
C[C@H](CO)N1C[C@H](C)[C@H](CN(C)C(=O)Nc2ccc3c(c2)OCO3)Oc2ccc(NC(=O)C3CC3)cc2C1=O
 : 7.1	0.0
C[C@@H]1CN([C@@H](C)CO)C(=O)c2cccc(NC(=O)c3ccc(-c4nccs4)cc3)c2O[C@H]1CN(C)C
 : -10.0	.
C[C@H]1CN([C@@H](C)CO)C(=O)c2cc(NC(=O)CCCCCC(=O)Nc3ccccc3N)ccc2O[C@H]1CN(C)Cc1ccc(-c2ccccc2)cc1
 : -2.8	.
COc1cc(/C=C/C(=O)O)cc(OC)c1OC
 : 4.6	0.3
COc1ccc(S(=O)(=O)Nc2cccc3c2O[C@H](CN(C)C(=O)Nc2ccccc2)[C@H](C)CN([C@H](C)CO)C3=O)cc1
 : -4.0	.
C[C@H](CO)N1C[C@H](C)[C@H](CN(C)Cc2ccc(Cl)c(Cl)c2)Oc2c(NS(=O)(=O)c3cn(C)cn3)cccc2C1=O
 : -3.2	.
Cc1noc(C)c1S(=O)(=O)Nc1ccc2c(c1)C(=O)N([C@H](C)CO)C[C@@H](C)[C@@H](CN(C)C(=O)Nc1ccc3c(c1)OCO3)O2
 : -1.3	0.0
Nc1ccc2nc(NC(=O)C34CC5CC(CC(C5)C3)C4)sc2c1
 : -6.9	-0.9

Following part
Screens in order – BJeLR viability	A1 inhib
CCC(C)NC(=O)Nc1ccc(Br)cc1F (stereo not given)
 : 4.2	-1.2
C[C@H]1CN([C@@H](C)CO)C(=O)c2cccc(NS(C)(=O)=O)c2O[C@H]1CN(C)CC1CCCCC1
 : 22	.
C[C@@H]1CN([C@@H](C)CO)C(=O)c2cc(NS(C)(=O)=O)ccc2O[C@H]1CN(C)C(=O)Nc1cccc2ccccc12
 : 2.2	0.3
COC(=O)/C(=C/c1ccc2c(c1)OCO2)NC(=O)c1ccc(C(C)(C)C)cc1
 : -5.0	-0.4
CC(NCCC(c1ccccc1)c1ccccc1)c1ccccc1 (stereo not given)
 : 3.7	0.6
CC(C)C(C(=O)O)N1C(=O)/C(=C/c2ccccc2)SC1=S (stereo not given)
 : -7.6	-0.7
Cc1ncc(CO)c2cc(C(=O)Nc3ccccc3)c(=Nc3ccccc3)oc12
 : -13	-0.2
Cc1cc(-c2ccc3ccccc3n2)nc2ccc3ccccc3c12
 : 0.2	-5.8
Cc1ccc(C2=NN=C(NC(=O)C(F)(F)F)SC2)cc1
 : 4.2	-5.4
O=C(Cc1cccc2ccccc12)NC1CCCCNC1=O (stereo not given)
 : 5.0	-0.3

The listing continues.
Screens in order – BJeLR viability	A1 inhib
COc1cc(CCC(=O)O)oc(=O)c1
 : 10	0.3
O=C(COC(=O)c1c2c(nc3ccccc13)CCCC2)Nc1nc2ccccc2s1
 : 1.5	-0.8
CN(C1CCCCC1)S(=O)(=O)c1csc(C(N)=O)c1
 : -3.7	-0.1
COc1ccccc1CN1CC(C(=O)NC2CCCCC2)CC1=O (stereo not given)
 : 3.8	0.8
C[C@H]1CN([C@@H](C)CO)C(=O)c2cccc(NC(=O)C3CC3)c2O[C@H]1CN(C)Cc1ccc(C(F)(F)F)cc1
 : -1.1	.
COc1ccc(S(=O)(=O)N(C)C[C@H]2Oc3c(NC(=O)Nc4ccc(F)cc4)cccc3C(=O)N([C@@H](C)CO)C[C@@H]2C)cc1
 : 4.3	.
CCOc1ccc(-n2c(-c3nn(C)cc3Cl)n[nH]c2=S)cc1
 : -0.5	.
C[C@@H]1CN([C@@H](C)CO)C(=O)c2cccc(NS(=O)(=O)c3ccc(Cl)cc3)c2O[C@@H]1CN(C)S(=O)(=O)c1ccc(Cl)cc1
 : 4.1	.
COc1ccc(CN(C)C[C@@H]2Oc3c(NC(=O)NC4CCCCC4)cccc3C(=O)N([C@@H](C)CO)C[C@@H]2C)cc1
 : 3.5	.
C[C@H]1CN([C@@H](C)CO)C(=O)c2cc(NC(=O)c3ccncc3)ccc2O[C@@H]1CN(C)C(=O)NC1CCCCC1
 : 1.8	1.6

Continuation.
Screens in order – BJeLR viability	A1 inhib
C[C@H]1CN([C@@H](C)CO)C(=O)c2cc(NS(C)(=O)=O)ccc2O[C@H]1CN(C)C(=O)Nc1ccc2c(c1)OCO2
 : 3.8	0.1
COc1cccc(-c2nnc(NC(=O)c3ccc(S(=O)(=O)N(C)C)cc3)o2)c1
 : 21	.
Cc1cc(C(=O)Nc2cccc3c2O[C@H](CN(C)S(=O)(=O)c2c(C)noc2C)[C@H](C)CN([C@@H](C)CO)C3=O)n(C)n1
 : 13	.
C[C@@H]1CN([C@H](C)CO)C(=O)c2cc(NC(=O)c3ccncc3)ccc2O[C@@H]1CN(C)Cc1ccc(C(=O)Nc2ccccc2N)cc1
 : 24	.
O=C(c1cnn2c(C(F)(F)F)cc(-c3ccccc3)nc12)N1CCCC1
 : -2.7	0.2
C[C@H](CO)N1C[C@H](C)[C@H](CN(C)C(=O)Nc2ccc(C(F)(F)F)cc2)Oc2ccc(NC(=O)Cn3cnnn3)cc2C1=O
 : 0.9	-0.3
CCc1ccc(CNC(=O)CN2C(=O)CSc3ncccc32)cc1
 : -8.3	1.1
O=C(NCc1ccccn1)c1ccc(N2CCCC2=O)cc1
 : 0.6	.
CC(C)(C)n1ncc2c(=O)n(Cc3cccc(C(F)(F)F)c3)cnc21
 : 6.5	0.6
C[C@@H]1CN([C@@H](C)CO)C(=O)c2cccc(NC(=O)Nc3ccccc3)c2O[C@@H]1CN(C)Cc1ccc(Cl)c(Cl)c1
 : -2.8	.

Compounds above with a Cl atom:
Screens in order – BJeLR viability	A1 inhib
CN(C)c1ccc(C(c2nnnn2CCOC(=O)Nc2ccc(Cl)cc2)N2CCOCC2)cc1 (stereo not given)
 : -6.6	.
C[C@H](CO)N1C[C@H](C)[C@H](CN(C)Cc2ccc(Cl)c(Cl)c2)Oc2c(NS(=O)(=O)c3cn(C)cn3)cccc2C1=O
 : -3.2	.
CCOc1ccc(-n2c(-c3nn(C)cc3Cl)n[nH]c2=S)cc1
 : -0.5	.
C[C@@H]1CN([C@@H](C)CO)C(=O)c2cccc(NS(=O)(=O)c3ccc(Cl)cc3)c2O[C@@H]1CN(C)S(=O)(=O)c1ccc(Cl)cc1
 : 4.1	.
C[C@@H]1CN([C@@H](C)CO)C(=O)c2cccc(NC(=O)Nc3ccccc3)c2O[C@@H]1CN(C)Cc1ccc(Cl)c(Cl)c1
 : -2.8	.

More compounds follow:
Screens in order – BJeLR viability	A1 inhib
Cc1ccc(S(=O)(=O)Nc2ccc3c(c2)C(=O)N([C@@H](C)CO)C[C@@H](C)[C@@H](CN(C)S(=O)(=O)c2ccccc2)O3)cc1
 : -4.5	-0.5
C[C@H](CO)N1C[C@H](C)[C@@H](CN(C)C(=O)Nc2ccc(F)cc2)Oc2ccc(NS(C)(=O)=O)cc2C1=O
 : -5.4	0.3
CCc1nc(SCC(=O)C(C)(C)C)c(C#N)cc1C
 : 5.0	-0.2
COC(=O)c1cnn2c3c(c(C)nc12)CCCC3
 : 2.2	1.1
COc1ccccc1/C=C/C(=O)Nc1sc2c(c1C(N)=O)CCC2
 : -5.7	-0.4
CCN(C(=O)c1cc2c(=O)oc3ccccc3c2s1)c1ccccc1
 : 4.8	.
O=C1c2cccc(O)c2C(=O)c2c(O)cccc21
 : 0.7	-0.1
Cc1cc2nnc(SCC(=O)c3cc(C)n(Cc4ccccc4)c3C)n2c2ccccc12
 : 0.6	-0.2
Cc1noc(C)c1NC(=O)Nc1cccc2c1O[C@H](CN(C)S(C)(=O)=O)[C@@H](C)CN([C@H](C)CO)C2=O
 : -0.9	.
C[C@@H]1O[C@@H](OCC2OC(OC3C(OC4C(Oc5c(-c6ccc(O)c(O)c6)oc6cc(O)cc(O)c6c5=O)OC(CO)C(O)C4O)OC(CO)C(O)C3O)C(O)C(O)C2O)[C@H](O)[C@H](O)[C@H]1O (stereo not given in full)
 : 0.0	0.5

Later entries
Screens in order – BJeLR viability	A1 inhib
C[C@@H]1CN([C@H](C)CO)C(=O)c2cc(NC(=O)Cn3cnnn3)ccc2O[C@H]1CN(C)C(=O)Nc1ccc(C(F)(F)F)cc1
 : 1.6	-0.4
C[C@@H]1CN([C@H](C)CO)C(=O)c2cccc(NC(=O)NC3CCCCC3)c2O[C@@H]1CN(C)Cc1ccc(Cl)c(Cl)c1
 : -15	.
Cc1ccc(Cl)cc1N1CCN(C(=O)C2CCN(S(=O)(=O)c3cccs3)CC2)CC1
 : 1.2	.
CC1CCN(S(=O)(=O)c2ccc3nc(-c4cccnc4)cc(C(=O)NCC4CCCO4)c3c2)CC1 (stereo not given)
 : -3.8	0.7
C[C@@H]1CN([C@@H](C)CO)C(=O)c2cccc(NC(=O)C3CCCCC3)c2O[C@@H]1CN(C)S(C)(=O)=O
 : -0.6	.
c1ccc(CN2CCN(c3ncnc4sc5c(c34)CCCCC5)CC2)cc1
 : 1.6	0.5
C[C@@H]1O[C@@H](O[C@H]2[C@H](O[C@H]3CC[C@@]4(C)C(CC[C@]5(C)C4CC=C4[C@@H]6CC(C)(C)CC[C@]6(C(=O)O[C@@H]6O[C@H](CO[C@@H]7O[C@H](CO)[C@@H](O)[C@H](O)[C@H]7O)[C@@H](O)[C@H](O)[C@H]6O)CC[C@]45C)[C@]3(C)CO)OC[C@H](O)[C@@H]2O)[C@H](O)[C@H](O)[C@H]1O (stereo not given in full)
 : -4.0	0.2
Cc1c(C(=O)N2CCOCC2)[nH]c2ccc(OCc3ccccc3)cc12
 : 2.4	0.5
CO[C@]12C[C@@H](COC(=O)c3cncc(Br)c3)CN(C)[C@@H]1Cc1cn(C)c3cccc2c13
 : 1.7	-0.4
CC1C(c2ccccc2)=[N+]([O-])C(C)(C)N1O (stereo not given)
 : 2.3	1.2

The list goes on:
Screens in order – BJeLR viability	A1 inhib
C[C@H](CO)N1C[C@H](C)[C@H](CN(C)Cc2ccncc2)Oc2c(NC(=O)c3ccc(-c4nccs4)cc3)cccc2C1=O
 : -2.6	.
COc1ccc(NC(=O)Nc2cc(F)cc(F)c2)cc1OC1CCCC1
 : -0.6	-0.4
CC(C)NC(=O)N(C)C[C@@H]1Oc2c(NC(=O)Nc3ccc4c(c3)OCO4)cccc2C(=O)N([C@H](C)CO)C[C@@H]1C
 : 3.7	.
CCN(CC)S(=O)(=O)c1ccc(Nc2c3c(nc4ccccc24)CCCC3)cc1
 : 3.0	-1.2
CN(CC(=O)Nc1ccc(C(F)(F)F)cc1)S(=O)(=O)c1cccs1
 : 3.7	.
Cc1noc(C)c1NC(=O)N(C)C[C@H]1Oc2c(NC(=O)NC3CCCCC3)cccc2C(=O)N([C@H](C)CO)C[C@@H]1C
 : -1.3	.
COc1ccc(CN(C)C[C@@H]2Oc3c(NC(=O)NC(C)C)cccc3C(=O)N([C@@H](C)CO)C[C@@H]2C)cc1
 : 4.5	.
N#CC(C(=O)c1ccccc1Cl)=C1SCCCS1
 : -1.2	0.2
CC1CCN(S(=O)(=O)c2ccc3[nH]c(=O)cc(C(=O)NCCCN4CCOCC4)c3c2)CC1
 : 7.0	1.2
CC(C)NC(=O)N(C)C[C@H]1Oc2ccc(NC(=O)C3CC3)cc2C(=O)N([C@H](C)CO)C[C@@H]1C
 : 3.3	-0.3

Additional entries.
Screens in order – BJeLR viability	A1 inhib
Cc1noc(C)c1NC(=O)N(C)C[C@H]1Oc2c(NC(=O)Nc3ccc(F)cc3)cccc2C(=O)N([C@H](C)CO)C[C@H]1C
 : 0.0	.
CC1=N/C(=C\c2sccc2C)C(=O)O1
 : 6.4	0.4
C[C@H]1CN([C@@H](C)CO)C(=O)c2cccc(NC(=O)c3ccncc3)c2O[C@@H]1CN(C)CC1CCCCC1
 : -4.3	.
CNC[C@@H]1Oc2c(NS(=O)(=O)c3ccccc3)cccc2C(=O)N([C@@H](C)CO)C[C@@H]1C
 : 0.5	.
C[C@H](CO)N1C[C@H](C)[C@@H](CN(C)CC2CCCCC2)Oc2c(NS(=O)(=O)c3cn(C)cn3)cccc2C1=O
 : -1.0	.
CCc1nc(N2CCCCC2)c(C#N)c2c1CCCC2
 : 2.2	-0.1
CNC[C@@H]1Oc2c(NC(=O)Nc3ccccc3)cccc2C(=O)N([C@@H](C)CO)C[C@@H]1C
 : -3.7	.
Cc1nc2ccc(S(=O)(=O)NC(C(=O)Nc3ccccc3C)c3ccccc3)cc2s1 (stereo not given)
 : -1.9	0.0
C[C@H]1CN([C@@H](C)CO)C(=O)c2cccc(NS(=O)(=O)c3cn(C)cn3)c2O[C@@H]1CN(C)Cc1ccc(C(=O)O)cc1
 : -3.4	.
CC(C)(C)c1ccc(C(=O)N2CCCc3ccccc32)cc1
 : 3.1	-1.5

The list goes on:
Screens in order – BJeLR viability	A1 inhib
Cc1noc(C)c1S(=O)(=O)Nc1ccc2c(c1)C(=O)N([C@H](C)CO)C[C@@H](C)[C@@H](CN(C)S(C)(=O)=O)O2
 : -2.5	0.4
O=C(CSc1oc(-c2ccccc2)nc1S(=O)(=O)c1ccc(Cl)cc1)NCC1CCCO1 (stereo not given)
 : 2.9	.
CC(C)NC(=O)Nc1cccc2c1O[C@@H](CN(C)CC1CCCCC1)[C@@H](C)CN([C@H](C)CO)C2=O
 : -2.2	.
COc1ccc(S(=O)(=O)Nc2ccc3c(c2)C(=O)N([C@H](C)CO)C[C@@H](C)[C@@H](CN(C)Cc2ccc(C(F)(F)F)cc2)O3)cc1
 : -4.2	-0.2
C[C@@H]1CN([C@@H](C)CO)C(=O)c2cccc(N(C)C)c2O[C@H]1CN(C)Cc1ccncc1
 : -2.6	.
